CapD inh: CapD enzyme inhibition. purified CapD enzyme, fluorescence intensity read-out; active compounds read low; some hits fall short of the stated cut. z-score (concentration not given with the values). hit rate 0.23% among 140,000. AID 492967;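 active = z-score under -4 in either of two replicates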;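 also: stock transfer was 100 nL into about 40 µL; score is relative to mean and spread of the plate; one replicate is shown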
AID504770: growth inhibitors of E. coli YBA685 in a screen for V. cholerae RctB (chromosome II replication) inhibitors; z-score (no concentration beside the values); hit rate 0.27% among 130,000; E. coli YBA685 rctB-dependent plasmid, OD600 growth, 3 h; active compounds read low;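 active = z-score under -2 on both plates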;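 also: wells of about 30 µL received 100 nL stock; score is relative to mean and SD of the test wells; the first replicate is given; strong numbers were not always called active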
* marks the source's active call; other numbers are inactive results; i = inactive; . = no result given.

SMILES,AID504770,CapD inh
CCNc1cc(N2CCCC2)c2noc3c2c1C(=O)c1ccccc1-3,0.75,0.38
NC(=O)CCSc1ccc(Cl)cc1,2.1,.
COc1cccc(-c2ccc(=O)n(CC(=O)N3CCN(c4ccccc4)CC3)n2)c1,-0.5,.
CC(=O)n1c(=O)n(C(C)=O)c2ccccc21,-0.25,-0.8
COC(=O)C1C(=O)C=C(Nc2ccc(F)cc2F)CC1c1ccc(OC)cc1 (stereo not given),-0.3,-0.57
CC1(C)CC2CC(C)(CN2CC(=O)C(C#N)c2ccccc2)C1 (stereo not given),0.6,.
O=C(COC(=O)c1cnc(Cl)c(Cl)c1)c1ccccc1,-0.6,.
NC(=O)c1ccsc1NC(=O)Cn1[nH]c(=O)c2ccccc2c1=O,-0.85,.
S=C(N/N=C/c1c(Cl)cccc1Cl)NC1CC2C=CC1C2 (stereo not given),.,0.12
c1ccc(CN2CCN(C3=Nc4cccc5cccc3c45)CC2)cc1,0,.
O=C(OCc1ccccc1OC(F)(F)F)N1CCN(c2ccccn2)CC1,.,4.1
CCC1CCCCN1C(=S)Nc1ccc(OC(F)F)cc1 (stereo not given),-0.5,.
Oc1ccccc1-c1nnc(SCc2ccccc2)o1,-0.9,.
COc1cc(C(=O)NCCN2CCCCC2)ccc1OC1OC(COC(C)=O)C(OC(C)=O)C(OC(C)=O)C1OC(C)=O (stereo not given),.,0
COC(=O)c1ccc2c(=O)n(CCc3ccc(OC)c(OC)c3)c(SCC(=O)Nc3cccc(OC)c3)nc2c1,.,-0.69
COC(=O)C1=C(N)N(c2ccc(F)cc2)C2=C(C(=O)CC(C)(C)C2)C1c1ccccc1 (stereo not given),-0.4,0.79
O=C(Cc1ccccc1F)Nc1nnc(C2CC2)s1,-0.05,-1.2
COc1ccc(C(=O)c2coc3ccc(OC)cc3c2=O)cc1,-0.6,0.73
C=CCn1c(Cl)c(/C=N/NC(=O)c2cc(C)oc2C)s/c1=N\S(=O)(=O)c1cccs1,-0.3,.
NC[C@H](O)c1ccc(O)c(O)c1,0.05,-0.31
Cc1cc(NC(=O)COC(=O)Cc2ccsc2)no1,-0.55,.
COc1ccc(NC2(C#N)CCCCC2)cc1,-0.3,-0.04
CC1CCC(NC(=O)Cn2ncc3c4ccccc4n(Cc4ccccc4)c3c2=O)CC1 (stereo not given),-0.35,0.57
CCOc1ccc(-c2csc(/C(C#N)=C\Nc3ccc(NC(C)=O)cc3)n2)cc1,-0.85,-0.03
CC(=O)Nc1c(C)ccc(NC(=O)C2C(C=C(C)C)C2(C)C)c1C (stereo not given),0,0.74
COc1ccc(C(=O)OCc2nc3ccccc3s2)cc1,0.05,i
Oc1ccccc1C=Nc1ccc(N=Cc2ccccc2O)cc1,0.15,-0.37
CN1C(=O)C(C)(C)c2cc(S(=O)(=O)NCCc3ccco3)ccc21,-0.35,-0.38
CCC(=O)Nc1nnc(-c2cccs2)o1,-1.5,3.7
CCC(C)C12CN3CCN(CC(C)(C3)C1=O)C2 (stereo not given),2.1,0.15
Cc1cc(C)n(C(=O)CN2C(=O)CN=C(c3ccccc3)c3cc(Br)ccc32)n1,0.45,0.69
O=C1c2ccccc2C(=O)N1C1CCN(Cc2ccccc2)CC1,0.45,-0.035
c1ccc(-c2nnc3ccc(SCc4ccccn4)nn23)cc1,-0.7,3.2
O=C(NC(=S)NCc1ccncc1)c1ccccc1,.,-0.14
COc1cc(/C=C2\N=C(c3ccccc3)OC2=O)ccc1OCc1c(C)no[n+]1[O-],.,0.6
CCn1c(C)nc2cc(OC)ccc21,0.9,-0.015
O=C(N/N=C/C=C/c1cn(Cc2ccccc2)nn1)C1CC1,-0.7,.
COc1cc(NC(N)=S)c(OC)cc1Cl,-0.75,-0.4
CCOC(=O)c1c(-c2ccccc2)oc2ccc(NS(=O)(=O)c3ccc(F)cc3)cc12,.,14
CCc1ccc(-c2csc(Nc3ncccn3)n2)cc1,0,.
CCOC(=O)c1ccc(S(=O)(=O)N2CCN(/C=C/C(=O)c3ccccc3)CC2)cc1,-0.1,.
CN1CC(=O)NC1=NC(=O)C1CCCN(S(=O)(=O)c2ccc3c(c2)oc(=O)n3C)C1 (stereo not given),-0.15,-0.61
O=S(=O)(c1ccccc1)c1nc(COc2ccc(Cl)cc2Cl)oc1NCc1ccccc1,.,0.42
CC(=O)n1c(O)c(N=NC(=O)COc2ccc(Cl)cc2)c2ccccc21,-0.65,0.085
COc1ccc(-c2cc(C(=O)NNC3=NCCCCC3)c3c(C)noc3n2)c(F)c1,0.25,.
O=C(Nc1cccc2ccccc12)NC1Cc2ccccc2C1,.,2.3
CC1(C)C=C(c2ccc(O)cc2)CC(C)(C)N1,1.6,0.28
Cc1[nH]nc2oc(=O)c([N+](=O)[O-])c(C)c12,.,-1.5
CCOc1ccccc1NC(=O)c1cccc2c1C(=O)N(Cc1cccnc1)C2,1.7,-1.1
CCOc1ccc2c(c1)C(=C1SC(C(=O)OC)=C(C(=O)OC)S1)C(=S)C(C)(C)N2C(=O)C(C)CC (stereo not given),.,-0.21
Cn1c(SCc2ccc3c(c2)OCO3)nnc1-c1ccccc1,-0.95,-0.2
COc1cccc(C(=O)NC(c2cccc([N+](=O)[O-])c2)c2cc(Cl)c3cccnc3c2O)c1 (stereo not given),.,-0.23
N#CC1=C(N)OC2=C(C(=O)CCC2)C1c1ccc(OC(=O)c2cccs2)cc1 (stereo not given),.,-0.83
Cc1ccc2c(c1)C(c1ccccc1)N(C(=O)c1ccccc1)CC(=O)N2 (stereo not given),-0.05,-0.67
O=C(Nc1ccncc1)c1cccc(COc2ccc3ccccc3c2)c1,0.8,-0.14
C=C(C)Cc1c(C)nc(SCC(=O)c2ccc(Cl)cc2)nc1OC(=O)N(C)C,-0.15,0.67
O=C(NCCCN1CCCC1=O)c1ccc2c(c1)OCCO2,-0.8,-0.17
Cc1nc2ccc(S(=O)(=O)NCC(=O)N3CCCC3)cc2s1,-0.45,60
Nc1nc(N)c2ncn(C3CC(O)C(CO)O3)c2n1 (stereo not given),.,0.07
Cc1ccc2c(c1)cc(CN(C(=S)NCc1ccco1)C1CCCCC1)c1nnnn12,0.05,.

The list goes on, starting with the last 6 of the part before.
SMILES,AID504770,CapD inh
O=C(Nc1ccncc1)c1cccc(COc2ccc3ccccc3c2)c1,0.8,-0.14
C=C(C)Cc1c(C)nc(SCC(=O)c2ccc(Cl)cc2)nc1OC(=O)N(C)C,-0.15,0.67
O=C(NCCCN1CCCC1=O)c1ccc2c(c1)OCCO2,-0.8,-0.17
Cc1nc2ccc(S(=O)(=O)NCC(=O)N3CCCC3)cc2s1,-0.45,60
Nc1nc(N)c2ncn(C3CC(O)C(CO)O3)c2n1 (stereo not given),.,0.07
Cc1ccc2c(c1)cc(CN(C(=S)NCc1ccco1)C1CCCCC1)c1nnnn12,0.05,.
Cc1cccc(C(=O)Nc2cccc(NC(=O)c3cccc(C)c3)n2)c1,-0.1,0.71
COc1ccc(OC)c(NC(=O)CCN2CCN(Cc3cccc4ccccc34)CC2)c1,-0.2,.
NNC(=O)c1ccc(-n2cnnn2)cc1,-0.8,.
O=C(CCN1CCN(C2c3ccccc3-c3ccccc32)CC1)Nc1ccccc1F,-0.95,0.2
COc1ccc2c3c(c(=O)oc2c1OCC(=O)C(C)(C)C)CCCC3,0,5.1
CS(=O)(=O)N1CCN(c2ncnc3c(-c4ccc(Cl)cc4)nsc23)CC1,0.75,.
C/C(=C\C(=O)Nc1cscc1C)C(=O)O,-1.1,0.13
COc1ccc(/C=C2\C=C(c3ccccc3)N(c3ccc(Nc4ccccc4)cc3)C2=O)cc1Br,.,-0.17
C=CCN(CC=C)C(=O)C1c2ccccc2Oc2ccccc21,-0.25,0.69
Cc1cccc2c1CC(C)(C)N=C2C1=C(O)CC(C)(C)CC1=O,.,0.07
C=CCSC1=C(C#N)C(c2ccc(C)o2)CC(=O)N1 (stereo not given),1.8,0.095
O=C(NCCC1=CCCCC1)c1n[nH]c(=O)c2ccccc12,.,-0.35
COc1ccc(C(=O)N/N=C/c2cc(OC)c3c(c2)OCO3)cc1OC,.,16
CC1(C)CC(NC(=O)NC2CCCCC2)CC(C)(C)N1,1.4,-0.4
O=C(NCc1nc2ccccc2n1Cc1ccc(Cl)cc1)c1ccccc1,-0.75,-0.53
O=C(O)c1cccc(C(=O)c2cccc(C(=O)O)c2)c1,-1.2,-0.88
C=CCn1c(SCC(=O)/C(C#N)=C(\c2ccc(F)cc2)N2CCOCC2)nnc1-c1ccccc1,2,.
O=C(Nc1cccc(C(F)(F)F)c1)c1ccc(N2CC3CC(C2)c2cccc(=O)n2C3)c(NC(=O)c2cccnc2)c1 (stereo not given),.,-0.34
Cc1ccc(-c2nn(C)c(=O)c3ccccc23)cc1CNS(C)(=O)=O,-0.5,0.04
Cc1ccc(C(=O)c2ccccc2C(=O)OCC(N)=O)cc1,0.35,0.29
COc1cccc(C(=O)Nc2ccc(-c3cn4ccccc4n3)cc2)c1,3.6,0.02
CCc1ccccc1NC(=O)CSC1=C(C#N)C(c2ccc(C)o2)C2=C(CCCC2=O)N1 (stereo not given),.,-1.3
COc1cccc(CN2CCN(C(C)C)CC2)c1,-0.45,0.34
Nc1c(C(=O)Nc2ccc(S(N)(=O)=O)cc2)sc2nc(-c3cccs3)cc(C(F)(F)F)c12,.,6.7
CCOc1ccc2nc(N3CCCC(C(=O)Nc4ccc(C)cc4Cl)C3)sc2c1 (stereo not given),0.05,0.17
O=C(COC(=O)c1ccccc1-c1ccccc1)c1ccccc1,0.25,-0.29
CC(C)CN(C(=O)CN1CCN(c2ncccn2)CC1)C1CCS(=O)(=O)C1 (stereo not given),-0.2,.
O=C1CCCc2nc(N3CCOCC3)sc21,-0.4,.
c1ccc(-c2nc(-c3ccccc3)c(-c3ccccc3)[nH]2)cc1,.,11
Cc1oc(CC(C)C)cc1C(=O)O,-0.25,.

2 of these compounds in a different format:
CCc1ccccc1NC(=O)CSC1=C(C#N)C(c2ccc(C)o2)C2=C(CCCC2=O)N1 (stereo not given)
  AID504770: .
  CapD inh: -1.3
O=C1CCCc2nc(N3CCOCC3)sc21
  AID504770: -0.4
  CapD inh: .

Further entries.
SMILES,AID504770,CapD inh
CC1CCCCC1NC(=O)/C(C#N)=C/c1cccc(O)c1 (stereo not given),-0.35,.
O=C1CC(C(=O)O)S/C(=N\N=C2CCCC2)N1 (stereo not given),-0.3,.
COc1ccc(CCNC(=O)CSc2nc3n[nH]c(C)c3c(=N)n2-c2cc(Cl)ccc2C)cc1OC,.,-0.14
CSCc1c(C)nn(C(=O)N(C)C)c1C,-0.45,0.41
Cc1cc2c(cc1[N+](=O)[O-])-c1c(ssc1=S)C(C)(C)N2,.,-0.42
O=C(Cn1ccc(C(F)(F)F)n1)N1N=CCC1(O)C(F)(F)F (stereo not given),-0.9,.
Cc1ccc(N2CCN(S(=O)(=O)c3ccc4[nH]cc(C(=O)O)c(=O)c4c3)CC2C)cc1 (stereo not given),.,5.3
COC(=O)NC(Nc1cccc(C(F)(F)F)c1)C(=O)c1ccccc1 (stereo not given),1.1,0.41
C/C(COc1ccccc1OCC(=O)O)=N\NC(=O)c1ccncc1,-1.1,.
CC(c1ccccc1)n1c(SCc2nc(-c3ccc(C(C)(C)C)cc3)no2)n[nH]c1=O (stereo not given),-0.3,0.88
COc1ccccc1NC(=O)CSc1nnc2sc3ccccc3n12,0.3,.
CC(=O)Nc1ncc(CN2CCOCC2)s1,1.1,-0.34
CC(C)CCNC(=O)c1ccc2c(c1)N(Cc1ccccc1)CCS2,0.15,0.26
O=C(NC(OCC1COC(C(F)(F)F)(C(F)(F)F)O1)(C(F)(F)F)C(F)(F)F)c1ccco1 (stereo not given),-0.25,0.075
c1ccc(CSc2nc3ccccc3[nH]2)cc1,0.85,-0.83
O=c1[nH]nc(SCc2nnc(-c3ccc(Cl)cc3)o2)n1C1CCCCC1,0.7,10
COc1ccccc1CNc1ccc(Br)cn1,-0.3,0.045
CCOC(=O)C(C)Sc1ncc(OC)c(Sc2ccc(Cl)cc2)n1 (stereo not given),.,0.21
CCOC(=O)c1c(-c2ccccc2)oc2cc(Br)c(OS(C)(=O)=O)cc12,.,23
Cc1ccc(CSc2nnc(N)s2)c(C)c1,0.5,-0.11
CN1c2ccccc2-c2ccccc2C12C=Cc1c(ccc3ccccc13)O2 (stereo not given),.,-0.03
CC(C)(C)c1cc(NC(=O)c2ccc3c(c2)S(=O)(=O)c2ccccc2C3=O)on1,0.15,.
COc1ccc(S(=O)(=O)Nc2ccc(C(=O)NCC(=O)O)cc2)cc1,0.1,.
CCC(C)(C)NC(=O)Cc1ccc(F)cc1,-0.5,-0.27
CCCNC(=O)CCn1nc(C)c2c(C)n(-c3ccccc3)nc2c1=O,-0.15,-0.06
Cc1ccc(NC(=O)Cc2n[nH]c(=O)c3ccccc23)c(O)c1,1.8,.
O=C1CN(C(=O)COc2ccccc2)c2ccccc2N1,0.75,0.62
CC(NC(=O)c1cc(=O)[nH]c2ccc(Br)cc12)c1ccc2c(c1)OCCO2 (stereo not given),1,0.37
COc1cccc2c1NC(c1ccc([N+](=O)[O-])cc1)C1CC(Sc3ccccc3[N+](=O)[O-])C(Cl)C21 (stereo not given),.,11
CCOc1ccc(C(=O)NCC(=O)n2nc(C)cc2C)cc1,-0.5,0.45
CC(=O)SCC(C)C(=O)O (stereo not given),-0.65,0.18
